Source: PubChem BioAssay (ICCB-Longwood Screening Facility, Harvard Medical School)
Polio RdRp inh – poliovirus RdRp elongation inhibitors, primary screen, biochemical, fluorescence polarization, total intensity | Genome polyprotein (Poliovirus type 1 (strain Mahoney)), P03300 | poliovirus polymerase elongation; active compounds read low | % elongation, % (compound at 16.7 µg/mL) | 0.66% of 150,000 active; in the data active = % elongation below about 90%; note: some results filed as inactive read as strong as hits
Target sequence (P03300 1749-2209 limits assumed): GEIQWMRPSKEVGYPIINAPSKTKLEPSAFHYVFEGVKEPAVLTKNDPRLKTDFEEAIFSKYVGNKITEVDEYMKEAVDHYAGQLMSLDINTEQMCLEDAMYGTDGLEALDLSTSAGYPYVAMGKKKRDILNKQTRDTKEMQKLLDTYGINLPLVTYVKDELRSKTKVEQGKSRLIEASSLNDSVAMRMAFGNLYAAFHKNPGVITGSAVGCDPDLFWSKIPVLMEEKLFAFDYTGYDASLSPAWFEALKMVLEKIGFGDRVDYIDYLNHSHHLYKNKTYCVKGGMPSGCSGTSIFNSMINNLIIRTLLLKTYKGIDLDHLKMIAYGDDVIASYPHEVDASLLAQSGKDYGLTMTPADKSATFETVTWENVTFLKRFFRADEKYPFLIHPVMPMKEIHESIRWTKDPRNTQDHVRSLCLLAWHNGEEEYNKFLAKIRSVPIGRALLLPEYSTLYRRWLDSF
Polio RdRp inh intensity – second read-out of Polio RdRp inh, no call of its own (marks repeat the call); % elongation; measured here: total intensity read-out; formula for this scale not given here;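 total fluorescence in place of polarization; lower means less elongation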
* = called active by the depositor.

SMILES	Polio RdRp inh	Polio RdRp inh intensity
CC1(C)CC(=O)c2cc(-c3nc(-c4ccccc4)cs3)c(=O)[nH]c2C1	104	114
COc1ccc(OC)c(NC(=O)CN2C(=O)COc3ccc(S(=O)(=O)NC4CCCC4)cc32)c1	100	104
CCC12CN3CC(C)(CN(C1)C3c1ccccc1C)C2=O (stereo unspecified)	105	107
COc1ccc(CNC(=O)CN2C(=O)COc3ccc(S(=O)(=O)NC4CCCC4)cc32)cc1	100	107
CCOc1ccccc1NC(=O)c1cccc2c1C(=O)N(C1CCCCC1)C2	111	112
CCOc1ccc(NC(=O)CSc2nc3c(oc4ccccc43)c(=O)n2-c2ccccc2C)cc1	103	111
COc1cc(C(=O)NCc2nc3cccnc3n2Cc2ccc(C)cc2)cc(OC)c1OC	119	121
O=C(NCCc1ccccc1)c1ccc2c(c1)N(Cc1ccc(F)cc1)C(=O)c1ccccc1S2(=O)=O	104	100
O=C(c1cccs1)N1CCCc2cc(NS(=O)(=O)c3ccc(Br)cc3)ccc21	109	109
COc1ccccc1C(=O)N1CCC(c2noc(-c3ccc(S(=O)(=O)N4CCCC4)cc3)n2)CC1	104	107
COc1ccc(-c2cc(-c3ccc(F)cc3)nc3c2COc2ccc(F)cc2-3)cc1	107	108
COc1ccc(S(=O)(=O)NCc2cccn2Cc2cccc(C)c2)cc1	108	109
Cc1ccc(NC(=O)Nc2cc3c(cc2N2CCCCC2)n(C)c(=O)n3C)cc1Cl	112	106
CN1CCN(c2ncc3c(n2)CCN(Cc2ccc(Br)s2)C3)CC1	111	114
CCOc1ccc(CCNC(=O)CN2C(=O)c3cccnc3Oc3ccc(Cl)cc32)cc1	112	114
COc1ccc(OC)c(CCNCc2c(C(=O)O)c(C)n(Cc3ccc(F)cc3Cl)c2C)c1	108	108
CCOc1ccccc1CNC(=O)c1cnc2sc(N3CCCC3)nn2c1=O	106	101
Cc1ccc(C)n1-c1nnc(N2CCC(C(=O)NCc3ccccc3Cl)CC2)s1	110	111
CCOc1cc(C#N)c(NC(=O)c2ccc(OC)c(S(=O)(=O)N3CCCCC3)c2)cc1OCC	100	105
COc1cc(C(=O)NCc2nc(-c3ccc(Cl)cc3)no2)cc(OC)c1OC	102	109

5 records picked at random from those above, as already listed:
SMILES	Polio RdRp inh	Polio RdRp inh intensity
Cc1ccc(NC(=O)Nc2cc3c(cc2N2CCCCC2)n(C)c(=O)n3C)cc1Cl	112	106
COc1ccc(S(=O)(=O)NCc2cccn2Cc2cccc(C)c2)cc1	108	109
Cc1ccc(C)n1-c1nnc(N2CCC(C(=O)NCc3ccccc3Cl)CC2)s1	110	111
CCOc1cc(C#N)c(NC(=O)c2ccc(OC)c(S(=O)(=O)N3CCCCC3)c2)cc1OCC	100	105
COc1ccc(OC)c(CCNCc2c(C(=O)O)c(C)n(Cc3ccc(F)cc3Cl)c2C)c1	108	108

Further structures follow:
SMILES	Polio RdRp inh	Polio RdRp inh intensity
COC(=O)c1ccc(Cl)c(NC(=O)C2CCN(S(=O)(=O)Cc3ccccc3)CC2)c1	103	92
Cc1cccc(S(=O)(=O)Nc2cccc(-c3ccc(N4CCCCC4)nn3)c2)c1	107	101
COc1ccc(-c2c(C)c3ccc(O)c(CN4CCCC4)c3oc2=O)cc1	107	99
Cc1ccc(NC(=O)CSc2nc(=O)n(Cc3cccnc3)c3c2CCC3)cc1F	101	98
Cc1ccc(C2CCN(C(=O)c3cnn(-c4ccccc4Cl)c3C3CCN(C(=O)OC(C)(C)C)CC3)C2)cc1 (stereo unspecified)	110	111
CCc1ccc(N(C)S(=O)(=O)c2ccc3[nH]cc(C(=O)NCC4CCCO4)c(=O)c3c2)cc1 (stereo unspecified)	105	99
Cc1cccc(C)c1NC(=O)CN(Cc1ccc(Br)cc1)S(=O)(=O)c1ccccc1	102	104
CC1CCc2onc(C(=O)N3CCN(c4ccccc4)CC3)c2C1 (stereo unspecified)	110	97
O=C(CSc1nccn1Cc1ccccc1)Nc1ccc2c(c1)OCCO2	100	109
COc1ccc(-c2nc(C)c(CCNC(=O)c3ccco3)s2)cc1	105	109

Given as a markdown table: entries from further up
| SMILES | Polio RdRp inh | Polio RdRp inh intensity |
| --- | --- | --- |
| Cc1ccc(NC(=O)CSc2nc(=O)n(Cc3cccnc3)c3c2CCC3)cc1F | 101 | 98 |
| COc1ccc(-c2c(C)c3ccc(O)c(CN4CCCC4)c3oc2=O)cc1 | 107 | 99 |
| COC(=O)c1ccc(Cl)c(NC(=O)C2CCN(S(=O)(=O)Cc3ccccc3)CC2)c1 | 103 | 92 |

New compounds follow.
SMILES	Polio RdRp inh	Polio RdRp inh intensity
CN(C)CCNC(=O)c1ccc2nc(CCc3ccccc3)oc2c1	105	107
CC(=O)Nc1ccc(NC(=O)CSc2nnc3c4cc(Br)ccc4n(C)c3n2)cc1	106	105
Cc1ccc(OCC(=O)Nc2ccc3nn(-c4ccc(Cl)cc4)nc3c2)cc1	109	112
O=C(CSCc1ccccc1Cl)NCc1ccc(Cl)c(Cl)c1	118	115
CC(C)c1ccc(NC(=O)c2cc(S(=O)(=O)N(C)C3CCCCC3)ccc2F)cc1	111	109
CC(=O)c1ccc(NC(=O)Cn2c(=O)cc(C)c3c(C)nn(-c4cccc(F)c4)c32)cc1	106	105
O=C(Nc1ccc2c(c1)CCCN2C(=O)c1cccs1)c1ccccc1C(F)(F)F	105	109
CC(C)COc1ccc(C(=O)Nc2cc3nn(-c4ccccc4)nc3cc2Cl)cc1	104	107
CCOc1cc(CNC(=O)c2ccc(C)c(NC(=O)c3nsc4ccccc34)c2)ccc1OC	109	107
COc1ccc2c(c1)c1c(c(=O)n(-c3cc(Cl)ccc3C)c(=O)n1CC(=O)N1CCCC1)n2C	109	110
Cc1coc2c(C)c3oc(=O)c(CCC(=O)NCCc4ccc(Cl)cc4)c(C)c3cc12	110	112
COc1ccc(-n2nc3cc(C)c(NC(=O)Cc4ccc(Cl)cc4)cc3n2)cc1	110	113
Cc1cccc(NC(=O)Cc2ccc(-n3c(C)nc4cccnc43)cc2)c1C	104	110
O=C(CCn1nc(-c2ccc(Cl)cc2)c2ccccc2c1=O)Nc1ccc(OC(F)(F)F)cc1	99	98
CCc1ccc(NC(=O)C(=O)NCC(c2ccc3c(c2)OCO3)N2CCOCC2)cc1 (stereo unspecified)	105	110
Cc1ccc(CNC(=O)CCCc2nnc3n(C)c(=O)c4sccc4n23)cc1	117	118
CCOC(=O)c1ccc(NC(=O)c2c(NCc3sccc3C)sc3c2CCC(C)C3)cc1 (stereo unspecified)	106	100
COc1cccc(NC(=O)Nc2ccc3c(c2)N(C)C(=O)c2ccccc2S3)c1	113	111
CCCN1C(=O)C(Cc2nc3ccccc3c(=O)n2-c2ccc(OC)cc2)c2cc(C)ccc21 (stereo unspecified)	109	113
CCOC(=O)c1sc(NC(=O)c2nc3ncccn3n2)c(C(=O)OC)c1C	105	104
COc1ccc(-c2noc(CSc3nc(N)cc(=O)[nH]3)n2)cc1OC	104	115
COc1nc(-c2ccc(C)cc2)ccc1-c1noc(-c2ccccc2Br)n1	106	110
O=C(Nc1c2c(nn1-c1ccc(Cl)cc1)CS(=O)(=O)C2)c1ccccc1F	98	101
CCn1cc(C(=O)NCCc2ccc(OC)c(OC)c2)c(=O)c2cc(S(=O)(=O)N3CCC(C)CC3)ccc21	109	111
COc1ccccc1CNC(=O)C1CCCN(S(=O)(=O)c2ccc3c(c2)CCCN3C(C)=O)C1 (stereo unspecified)	107	111
Cc1ccc(Cn2cccc(C(=O)Nc3cc(C)on3)c2=O)cc1	102	105
CCSC1=NC2(CCN(C(=O)NC3CCCCC3)CC2)N=C1c1ccc(C)cc1	106	110
COc1cccc2cc(C(=O)NCCc3c(C)[nH]c4ccc(Br)cc34)c(=O)oc12	97	97
O=C(Nc1ccccc1F)c1nc(SCc2ccccc2F)ncc1Cl	113	114
COCc1cc(C)nc2c1C(=O)NC(c1ccc(F)cc1)N2Cc1ccccc1 (stereo unspecified)	103	101
O=S(=O)(c1ccccc1)c1nc(-c2cccs2)oc1SCc1ccccc1Cl	105	112
CCc1ccccc1N(C)C(=O)c1sc2nc3n(c(=O)c2c1C)CCCCC3	107	109
CCOc1ccc(CNC(=O)CCC(=O)N2CC(C)Sc3ccccc32)cc1 (stereo unspecified)	110	112
O=C(CCS(=O)(=O)c1ccccc1)N(Cc1cccnc1)c1nc2c(Cl)cccc2s1	109	110
Cc1ccc(-c2nnc(SCc3ccccc3)o2)cc1	105	113
CCc1noc(-c2ccc(N(C)Cc3ccc(OC)cc3)c([N+](=O)[O-])c2)n1	108	114
CC(C)c1noc(-c2ccccc2OCC(=O)Nc2ccccc2[N+](=O)[O-])n1	104	109
COc1cccc2c1cc1c(=O)n(CC(=O)N3CCN(c4cccc(C)c4)C(C)C3)nc(C)n12 (stereo unspecified)	108	106
Oc1ccc(NCc2ccccc2OCc2ccccc2F)cc1	101	102
COc1ccc(-c2cn3nc(N4CCCC(C(=O)NCc5ccccc5OC)C4)sc3n2)cc1 (stereo unspecified)	108	110
COc1cccc(CNC(=O)c2ccc3c(c2)nc2n3CCOC2)c1	107	111
Cc1nnc(SCc2cc(=O)n3c(C)cccc3n2)s1	109	115
Cc1ccc2nc(-c3ccc(C)c(NC(=O)CSc4ccc(Cl)cc4)c3)oc2c1	106	112
CCc1ccc(NC(=O)CN2C(C(=O)OC)=C(c3ccccc3)c3ccccc3S2(=O)=O)cc1	101	107
Cc1ccccc1OCc1ccc(-c2nc(C#N)c(N3CCN(C)CC3)o2)o1	109	104
COc1cccc(-n2cc(C(=O)NCc3ccc(C)cc3)c3ccccc3c2=O)c1	114	103
CCc1ccc(S(=O)(=O)n2ccnc2)cc1	104	104
COc1cccc2c1ncc1c(-c3ccc(C)cc3)nn(-c3cccc([N+](=O)[O-])c3)c12	103	107
Fc1ccccc1N1CCN(c2ncnc3c2nc2n3CCCC2)CC1	104	105
CCc1cccc(NC(=O)CN(C)S(=O)(=O)c2ccc3c(c2)n(C)c(=O)c(=O)n3C)c1	103	102

Next section
SMILES	Polio RdRp inh	Polio RdRp inh intensity
COc1cc2c(cc1OC)C(COc1ccc3c(C)cc(=O)oc3c1)N(C(=O)c1cccc(C)c1)CC2 (stereo unspecified)	102	106
CCOc1ccc(CN2C(=O)c3ccccc3Sc3ccc(C(=O)NCc4ccco4)cc32)cc1	111	113
Cc1ccc2c(c1)cc1c(=O)n(CC(=O)NC(C)CCc3ccccc3)nc(C)n12 (stereo unspecified)	107	111
O=C(NCc1ccccc1)c1ccc2oc(=O)n(Cc3ccccc3)c2c1	110	110
Cc1cccc(S(=O)(=O)c2cn(Cc3ccccc3)c3cc(N4CCC(C)CC4)c(F)cc3c2=O)c1	105	98
Clc1cccc(CSc2ccc(-c3cccs3)nn2)c1	107	100
O=C(Nc1c(C(=O)c2ccc(Cl)cc2)oc2ccccc12)c1cc(=O)c2ccccc2o1	115	114
COc1ccc(NC(=O)c2c(-c3ccccc3)c(-c3ccccc3)nn(C)c2=O)cc1OC	104	98
COc1cccc(CNS(=O)(=O)c2ccc3[nH]c4c(c3c2)CCCCC4)c1	100	108
COc1ccc(-c2nc3ccccc3n2Cc2ccccc2)cc1	106	113
COc1ccc(NC(=O)c2ccc3c(c2)CCN3S(=O)(=O)c2ccc(C)cc2)cc1Cl	100	96
CCN(C(=O)CSc1nc2ccccc2n1Cc1cc(C)ccc1C)c1ccccc1	98	99
CCc1ccc(-n2nc3cc(C)c(NC(=O)c4ccccc4C)cc3n2)cc1	104	104
O=C(Nc1cccc(Cl)c1)c1cnc2sc(N3CCCC3)nn2c1=O	109	108
CCC1=Nc2cc(C(=O)NCCN(CC)CC)ccc2Sc2ccccc21	113	115
Cc1ccc(-c2nc(Cn3c(SCc4ccc(F)cc4)nc4cccnc43)c(C)o2)cc1	107	115
COc1ccc(OCCn2c(C)nc3cc(C)c(C)cc32)cc1	110	107
CCOc1ccc(CCNC(=O)c2c(C)oc3ncnc(N4CCOCC4)c23)cc1	108	109
CCc1ccc(OCC(=O)Nc2ncn[nH]2)c(Br)c1	105	112
COc1ccccc1CNC(=O)c1ccc2nc(CCc3ccccc3)oc2c1	105	113
Cc1ccc(N2C(=O)c3[nH]nc(-c4ccc(Cl)cc4)c3C2c2ccc(F)cc2)cc1 (stereo unspecified)	116	112
CCOC(=O)c1c(-c2ccc(C)cc2)csc1NC(=O)c1cc(=O)c2cc(C)ccc2o1	61*	71*
Cc1ccc(C2C(=O)N(C3CCCCCC3)CC(=O)N2C(C)C)cc1 (stereo unspecified)	114	116
CCOc1ccc(-n2ccnc2SCC(=O)Nc2ccc3c(c2)OCO3)cc1	110	106
Cc1ccc(NC(=O)C2CCN(S(=O)(=O)c3ccc4[nH]c5c(c4c3)CCCCC5)CC2)cc1	110	112
COc1cccc(NC(=O)/C(C#N)=C\c2cn(Cc3ccc(C)cc3)c3ccccc23)c1	110	111
CC1CCC2(CC1)N=C(c1ccccc1)C(=O)N2CC(=O)Nc1ccc(F)c(Cl)c1 (stereo unspecified)	106	108
O=C(Cn1cc(S(=O)(=O)Cc2cccc(Cl)c2)c2ccccc21)Nc1ccccc1C(F)(F)F	101	97
CC(C)(C)c1ccc(C(=O)Nc2ccccc2C(=O)OCc2cc(=O)n3ccsc3n2)cc1	110	108
COc1cccc(CCNC(=O)c2cnc3sc(N4CCCCCC4)nn3c2=O)c1	109	108
COc1ccc(Cl)cc1NC(=O)Cn1ccn(-c2cc(C)cc(C)c2)c(=O)c1=O	111	115
Cc1cc(NC(=O)c2ccco2)cc(-c2nc3ccccc3o2)c1O	105	106
Cc1nc2nc(NC(=O)c3ccc(F)cc3)[nH]n2c(=O)c1Cc1ccccc1	105	111
COc1ccc(C(=O)Nc2ccccc2-c2nc3ccccc3s2)cc1OC	102	97

Single records, as listed above. Values in the order: Polio RdRp inh, Polio RdRp inh intensity
Shown for COc1ccc(Cl)cc1NC(=O)Cn1ccn(-c2cc(C)cc(C)c2)c(=O)c1=O → 111, 115
Shown for COc1ccc(C(=O)Nc2ccccc2-c2nc3ccccc3s2)cc1OC → 102, 97
Shown for Cc1nc2nc(NC(=O)c3ccc(F)cc3)[nH]n2c(=O)c1Cc1ccccc1 → 105, 111
Shown for Cc1cc(NC(=O)c2ccco2)cc(-c2nc3ccccc3o2)c1O → 105, 106

The list is partial (hit frequency here may not be typical).
